Screens (PubChem BioAssay)
miR-21 reporter: miR-21 reporter, rising signal | HeLa miR-21 FLuc reporter, luciferase, 48 h | Potency, µM (doses to about 38.3 µM), for the others: at the highest dose reporter change, positive = more light | 340,000 tested, under 10 active; active = well fitted rising curve with a large enough effect; inconclusive = small, poorly fitted or top-dose-only effect; inactive = no such curve, though single readings can be large or run the other way;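 further: % of control where 0% means no effect; miR-21 action dims this reporter so a rising signal means less miR-21 action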
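HeLa cells endogenously expressing miR-21, stably carrying CMV-driven firefly luciferase with a downstream miR-21 binding site, 2000 cells/well. Titrations up to approximately 40 uM, 48 hours; luciferase luminescence read.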
Rango complex inh: inhibitors of Rango-importin beta complex formation; Rango CFP/YFP FRET sensor + importin beta, 45 min; Potency, µM (highest dose often 92.2 µM), inactives show top-dose inhibition of complex formation; actives 0.031% (n = 340,000); AID 540263; active = rising FRET ratio curve, often small or poorly fitted; inconclusive = mostly compound fluorescence or quenching in the first reads; inactive = flat curves in all reads;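 further: potency means the concentration at half of the fitted maximal effect; 0% = DMSO wells and 100% = buffer wells lacking importin beta; nearly all actives have a fitted effect of over 15% in size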
Target sequence (Q14974 whole entry, looked up): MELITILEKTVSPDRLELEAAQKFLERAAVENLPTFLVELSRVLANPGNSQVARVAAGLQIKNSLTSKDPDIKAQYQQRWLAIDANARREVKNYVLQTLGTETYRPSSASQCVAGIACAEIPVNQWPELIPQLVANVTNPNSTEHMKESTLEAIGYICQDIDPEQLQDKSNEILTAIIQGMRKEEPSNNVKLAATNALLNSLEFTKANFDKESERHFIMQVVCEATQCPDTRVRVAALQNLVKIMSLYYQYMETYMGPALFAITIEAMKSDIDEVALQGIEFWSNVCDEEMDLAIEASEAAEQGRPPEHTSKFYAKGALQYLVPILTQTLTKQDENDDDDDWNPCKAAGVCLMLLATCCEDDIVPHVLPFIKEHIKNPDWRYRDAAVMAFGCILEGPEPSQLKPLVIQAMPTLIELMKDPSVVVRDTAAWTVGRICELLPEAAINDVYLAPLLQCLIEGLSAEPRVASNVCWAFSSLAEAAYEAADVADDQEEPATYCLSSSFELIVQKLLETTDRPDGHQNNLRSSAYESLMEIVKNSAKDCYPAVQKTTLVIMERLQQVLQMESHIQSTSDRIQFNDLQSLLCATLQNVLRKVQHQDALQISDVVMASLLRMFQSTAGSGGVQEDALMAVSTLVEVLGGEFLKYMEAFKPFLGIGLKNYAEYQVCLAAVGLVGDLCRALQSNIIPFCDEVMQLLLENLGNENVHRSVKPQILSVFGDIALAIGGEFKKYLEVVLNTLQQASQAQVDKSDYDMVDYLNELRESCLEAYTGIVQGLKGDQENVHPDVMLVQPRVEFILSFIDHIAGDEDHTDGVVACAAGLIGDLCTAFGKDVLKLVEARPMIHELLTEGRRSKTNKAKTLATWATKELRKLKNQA
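Inhibition scored from the CFP 486 nm/YFP 530 nm FRET ratio 45 min after adding 0.125 microM importin beta to 50 nM Rango biosensor preincubated 5 min with compound (room temperature, PBS with DTT, Tween-20, BSA). No-importin wells as positive control.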
Rango dissoc inh: prevents RanGTP from dissociating the Rango-importin beta complex. O95149+P62826. Biochemical FRET Rango-importin beta, RanGTP-induced dissociation. Potency, µM (series often up to 46.1 µM), for inactives: at the top dose activity change, negative = inhibition. actives 0.071% (n = 340,000); active means falling FRET ratio curve, often poorly fitted, with flat reads before Ran was added; inconclusive means other falling curves, or compound fluorescence or quenching; inactive means flat or rising ratio curve;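 further: potency means the concentration at half of the fitted maximal effect; % of control where 0% means no effect; nearly all actives have a fitted effect of over 45% in size; -100% = wells without RanGTP and RCC1; the record marks most hits as doubtful in a second field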
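FRET read at 45 min, room temperature: inhibitors block the CFP/YFP signal rise when RanGTP (0.6 uM Ran, 2 mM GTP, 0.2 uM RCC1) frees Rango (0.1 uM) from importin beta (0.25 uM). Pre-read after 5 min compound exposure flags interference.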
GLA inh pH 4.5: alpha-galactosidase A (human) inhibition, pH 4.5; purified enzyme, 4-MU-alpha-Gal fluorescence, pH 4.5; activity change, negative = inhibition, % at 105 µM; 230,000 tested, under 10 active; AID 1467; inconclusive = small, poorly fitted or top-dose-only inhibition, or a rising curve; inactive = flat fitted curve, though single readings scatter; no compound was filed as active;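 further: 0% = full activity with enzyme and -100% = basal without enzyme; dose as in the result columns while the protocol names 77 µM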
An asterisk follows results filed as active; ? = inconclusive; . = no result given; & = joins results of further samples; [ ] = dose if it differs, or a comment. This is a subset; the hit share may differ from the screen's.

mol	Rango dissoc inh	Rango complex inh	GLA inh pH 4.5	miR-21 reporter
O=[As](O)(O)c1ccc(N=Nc2ccc(O)cc2)cc1	15%	4.8%	-11	9%
O=C1C2C3CCC(O3)C2C(=O)N1c1cccc(F)c1 (configuration not stated)	6%	0.4%	.	.
CN(C)c1nc(OCCNC(=O)COc2ccc(Cl)cc2Cl)nc(N2CCCCC2)n1	12%	1.4%	4	-5%
CC(C)(C)N(NC(=O)c1ccccc1)C(=O)c1ccccc1	2%	0.1%	-5	-3%
Cc1ccc(NC(=O)c2cc(-c3ccccc3)n(CCCN3CCOCC3)c2C)cc1	?	-0.9%	-13	-3%
COCCN1C(=O)NC(=O)/C(=C\c2ccc(F)cc2)C1=O	1%	0.1%	2	2%
COc1cc2c3cc1Oc1cc(ccc1O)C[C@@H]1c4c(cc(OC)c(O)c4Oc4cccc(c4)C[C@@H]3N(C)CC2)CC[N+]1(C)C	-13%	1.9%	.	.
CC(=O)Nc1ccc(N=Cc2c(O)n(Cc3ccco3)c(=O)[nH]c2=O)cc1	0%	-6.6%	2	-1%
O=C(N/N=C/c1c(O)n(-c2ccccc2)c(=O)[nH]c1=O)c1ccncc1	?	?	-1	0%
O=C1/C(=C\c2ccc([N+](=O)[O-])cc2)N2CCC1CC2	-7%	1.9%	5	-7%
Cc1ccccc1CCNCc1cc2cccc(C)c2[nH]c1=O	2%	3.3%	.	0%
CC(=O)N1N=C2C3CCN(CC3)C2C1c1ccc(F)cc1 (configuration not stated)	-2%	-0.5%	7	-1%
O=C1CCCN1c1ccc(S(=O)(=O)O)cc1 (tested in a mixture with another compound)	1%	3.8%	-9	-8%
Cc1c2cnn(CC(=O)N3CCC4(CC3)OCCO4)c(=O)c2c(C)n1Cc1ccc(F)cc1	-13%	1.9%	2	0%
O=C(O)c1ccccc1N=Nc1c(O)[nH]c(=O)[nH]c1=O	6%	-2.0%	-5	4%
Cc1ccc(Cn2nc(C(=O)Nc3ccc(Br)cc3)cc2C)cc1	13%	11%	.	-21%
CC1(C)CC(n2[nH]c(=O)c3c2NC(=O)CSC3c2ccccc2)CCO1 (configuration not stated)	-10%	-0.3%	5	-2%
Cc1ccc(S(=O)(=O)N2CCCC(C(=O)N3CCC4(CC3)OCCO4)C2)cc1 (configuration not stated)	-7%	-3.1%	-5	-1%
COc1cc(C(CN)CC(=O)O)ccc1O (configuration not stated)	-9%	0.3%	-3	-2%
C1=C(c2c[nH]c3ccccc23)CCN(Cc2ccccc2)C1	-10%	?	1	25%
NC(N)=N/N=C/c1ccc(N2CCOCC2)cc1	7%	-2.2%	-9[21.1 µM]	18%
CCC[C@H](N[C@@H](CCC)[C@H](O)c1ccccc1)[C@H](O)c1ccccc1	3%	-0.5%	.	.
CN1CCC2(CC1)NC(=O)C1=C(CN(C)CC1)N2	-1%	-14%	2	0%
CCN1C(=O)C(=Cc2cc(C)n(C3CC3)c2C)C(=O)N(CC)C1=S	-2%	?	-3	-7%
COC(=O)C1=C(c2ccc(OCc3ccccc3)cc2)C[C@@H]2CC[C@H]1N2C(=O)NCc1ccc([N+](=O)[O-])cc1	-15%	?	.	.
O=C(Nc1cccc(OC(=O)N2CCCCC2)c1)N1CCOCC1	-12%	-0.3%	-10	2%
Fc1ccc2c(c1)nnn2C1CCN(Cc2nnnn2CCc2ccccc2)CC1	0%	-0.6%	8	-6%
CCCCNS(=O)(=O)c1ccc(OCC(=O)N2CCN(Cc3ccc4c(c3)OCO4)CC2)cc1	-7%	7.0%	.	24%
COC(=O)C1=C(c2ccc(S(C)(=O)=O)cc2)C[C@@H]2CC[C@H]1N2C(=O)NCCCOC(C)C	0%	2.6%	.	.
COc1ccc2c(c1OC)C(=O)OC2c1c(O)n(C2CCCCC2)c(=O)[nH]c1=O (configuration not stated)	-13%	-5.3%	2	1%
Cc1c(C=C2C(=O)NC(=O)NC2=O)c(=O)n(-c2ccccc2)n1C	-17%	0.0%	3	-3%
O=[N+]([O-])c1ccc(N2CCOCC2)c2cccnc12	-14%	?	1	-12%
O=C(N/N=C/c1c(O)n(CCc2ccc(F)cc2)c(=O)[nH]c1=O)c1ccncc1	?	?	-2	-1%
COc1ccc(NP(=O)(Oc2cccc(C)c2)Oc2cccc(C)c2)cc1OC	7%	1.4%	-10	-1%
CN1CCCC(C(=O)c2ccc(Cl)cc2)C1 (configuration not stated)	-23%	-1.1%	-5	-2%
C(#CCN1CCCC1)CN1CCCC1	-16%	-0.8%	4	.
CC12CC[C@H]3[C@@H](CCC4(O)C[C@H](O)CCC34/C=N/NC(=O)c3ccc(O)cc3)C1(O)CCC2C1=CC(=O)OC1 (some centres not stated)	-2%	-1.8%	-8	-13%
Cc1cccc(-n2c(O)c(/C=C/C=Nc3ccccc3)c(=O)[nH]c2=O)c1	?	?	-8	0%
Cn1cc(Br)c(C(=O)Nc2ccc3c(C(F)(F)F)cc(=O)oc3c2)n1	5%	-5.2%	.	-2%
CCOc1cc(CN2CCN(C(=O)Cc3ccccc3)CC2)ccc1OC	17%	-1.0%	.	0%
Oc1ccc(O)c2c1C1(Cl)C(Cl)=C(Cl)C2(Cl)C1(Cl)Cl	19%	-0.1%	.	.
CSC[C@H](NC(=O)COc1cc2c(c3oc(=O)c(C)c(C)c13)CCC(C)(C)O2)C(=O)O	12%	0.0%	.	-3%
Cc1ccc(N2C(=O)NC(=O)/C(=C/c3ccc(-c4ccc(C(=O)O)c(Cl)c4)o3)C2=O)cc1	?	?	0	1%
CCOP(=S)(OCC)N1CCOCCOCCN(P(=S)(OCC)OCC)CCOCCOCC1	11%	-1.4%	-5	-1%
O=c1[nH]c(O)c(N=Nc2ccc(S(=O)(=O)N3CCOCC3)cc2)c(=O)[nH]1	-1%	2.2%	-9	-7%
CC(=O)c1cccc(OCC(O)CN2CC=C(c3ccccc3)CC2)c1 (configuration not stated)	20%	?	0	-8%
COC(=O)C1=C(c2ccccc2)C[C@@H]2CC[C@H]1N2C(=O)N1CCC(O)CC1	-7%	0.4%	.	.
CC(C)=CCSc1nnc([C@@H](N)Cc2c[nH]c3ccccc23)o1	-5%	2.2%	-3	-4%
CC(C)OP(=O)(OC(C)C)C(O)c1ccc(Br)cc1 (configuration not stated)	-1%	-0.4%	4	-3%
O=c1cccc2n1CC1CC2CN(S(=O)(=O)c2ccccc2)C1 (configuration not stated)	4%	-2.2%	9	-1%
Cc1nc2ccccc2c(=O)n1-c1ccc(F)cc1F	-26%	1.6%	-2	-6%
C[C@H]1CCC[C@H](O)CCCCCc2cc(O)cc(O)c2C(=O)O1	-14%	3.0%	0	27%
C=CCC1(Cc2ccsc2)C(=O)NC(=O)NC1=O	0%	-1.9%	.	.
CC/C(=N\N1CCCCCC1)c1c(O)n(-c2ccccc2C)c(=O)[nH]c1=O	-4%	-3.8%	-19	19%
CCN1CCC(O)(c2ccccc2)C(C(=O)c2ccccc2)C1 (configuration not stated)	-10%	0.2%	.	.
C=C1N2CCC(CC2)C1(O)c1ccccc1C (configuration not stated)	2%	-0.9%	8	0%
CCCCn1c(O)c(/C=N/N2CCCCC2c2cccnc2)c(=O)[nH]c1=S (configuration not stated)	-1%	-0.9%	1	1%
O=C1NC(=O)N(Cc2ccco2)C(=O)/C1=C/c1cccn1CCOc1ccccc1Cl	?	?	2	0%
CC12CC(=O)C3C(CCC4CC=CCC43C)C1CCC2=O (configuration not stated)	?	-2.3%	.	.
Cc1cc(C(=O)Nc2ccc3c(c2)OCCO3)nn1C(C)(C)C	32%	0.3%	-13	-73%

Going on with the list:
mol	Rango dissoc inh	Rango complex inh	GLA inh pH 4.5	miR-21 reporter
COP(=O)(OC)c1nc(-c2cccc3ccccc23)oc1NCCc1ccccc1	0%	-1.5%	?	-9%
CCC(CO)Nc1ccc([N+](=O)[O-])c2cccnc12 (configuration not stated)	-12%	4.8%	-3	-24%
COc1cc(C(=O)OC2C[C@H]3CC[C@@H](C2)N3C)ccc1O (some centres not stated)	-24%	2.1%	-7	1%
O=C(C(=O)N1CCOCC1)c1cn(Cc2ccccc2Cl)c2ccccc12	-9%	2.4%	-11	-2%
CC(=NCCC1=CCCCC1)c1c(O)n(-c2ccccc2)c(=O)[nH]c1=O	1%	-1.2%	-4	0%
CCOP(=O)(OCC)C(O)c1ccc(OC)c(OC)c1 (configuration not stated)	6%	2.0%	1	-1%
CC(=O)CC(=O)C1C(=O)N(C)C(=O)N(C)C1=O	26%	2.7%	-1	-1%
O=C(CCCc1ccccc1)NCCc1cnc[nH]1	7%	2.6%	.	-3%
CC1([N+](=O)[O-])COP(=O)(Nc2ccc(Cl)cc2)OC1 (configuration not stated)	-7%	3.9%	.	.
NC(N)=Nc1ccc2[nH]c3c(c2c1)C[C@@]1(O)[C@H]2Cc4ccc(O)c5c4[C@@]1(CCN2CC1CC1)[C@H]3O5	-2%	-0.1%	1	.
c1ccc(CC(NCc2ccco2)c2ccccc2)cc1 (configuration not stated)	-6%	1.7%	-7	0%
COc1ccc(C(=O)NC(=S)N2C[C@H]3C[C@H](C2)c2cccc(=O)n2C3)cc1	2%	0.0%	.	-7%
CN1CCc2cc3c(cc2C1)OCO3	-15%	0.3%	.	.
COC(=O)C1=C(c2cccc(OC)c2OC)C[C@@H]2CC[C@H]1N2C(=O)NC1CC1	-8%	-2.6%	.	.
CCCc1cc(=O)oc2cc(OCC(=O)N3C[C@H]4C[C@@H](C3)c3cccc(=O)n3C4)ccc12	5%	1.9%	.	-2%
CCN1CCN(Cc2cc(C(C)(C)C)c(O)c(C(C)(C)C)c2)CC1	.	.	-15	-7%
CNC(=O)c1cccn(Cc2cc(C(F)(F)F)cc(C(F)(F)F)c2)c1=O	9%	-0.9%	-7	7%
COc1cc(C=C2C(=O)NC(=O)NC2=O)ccc1OS(=O)(=O)c1ccccc1[N+](=O)[O-]	33%	4.1%	.	-27%
CCc1ccc(C2=NN(CCC(=O)N3CCC4(CC3)OCCO4)C(=O)CC2)cc1	5%	-0.2%	3	-3%
CCCCn1c(NC(=O)c2ccco2)c(C(=O)OCC)c2nc3ccccc3nc21	?	?	?	7%
CCN(CC)c1ccc(N=Cc2c(O)n(Cc3ccccc3)c(=O)[nH]c2=O)cc1	-19%&-13%	?	9&7	-1%&-7%
COc1ccc(C(C)=O)cc1CC(C(=O)c1ccc(C)c(C)c1)N(C)C (configuration not stated)	-4%	4.4%	3	-7%
CCOc1cc(CNCCc2ccccc2F)ccc1OC	1%	-2.7%	.	-13%
COC(=O)C1=C(c2cccc(OCc3ccccc3)c2)C[C@@H]2CC[C@H]1N2C(=O)NCCCOC(C)C	-15%	-0.7%	.	.
Cc1ccc(-c2nc3ccccc3c(=O)n2-c2ncccc2C)cc1	28%	3.2%	0	-1%
Cn1c(N)c(C(=O)COC(=O)Cc2ccccc2)c(=O)n(C)c1=O	5%	2.0%	.	.
COc1ccc(/C=C/C=C2C(=O)NC(=S)NC2=O)cc1	?	?	.	.
O=C(/C=C/c1c[nH]c2ccccc12)c1c(O)n(CCc2ccccc2)c(=O)[nH]c1=O	?	?	-11	-1%
Brc1ccc(Oc2cc(Br)c(Br)cc2Br)c(Br)c1	-2%	0.5%	.	.
CCCCN1C(=O)NC(=O)C2(Cc3ccccc3N3CCOCC32)C1=O (configuration not stated)	-8%	-0.9%	3	-2%
COc1ccc(NC(=O)CN(C)C(=O)CSC(c2ccccc2)c2ccccc2)cc1	-8%	-0.3%	.	.
Cc1cc(C(=O)CS(=O)(=O)c2ccccc2)cc(C)c1OC(=O)N(C)C	5%	-0.5%	-2	-32%
